LANA-H2B inh – blocks KSHV LANA binding to histone H2A/H2B; cell-free LANA-H2A/H2B peptide, fluorescence polarization; 320,000 compounds, 0.6% hits; inhibition, % (test concentration not listed); AID 2629; in the data active = inhibition mostly above about 10%, no sharp cut-off; inactive = mostly below about 6.7%;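 also: stock transfer was 7.5 nL into about 10 µL; 0% = median of vehicle wells and 100% = median of positive control wells; one replicate is shown; the record names a cut of 25% in any replicate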
Target sequence (Q9QR71 whole entry, looked up): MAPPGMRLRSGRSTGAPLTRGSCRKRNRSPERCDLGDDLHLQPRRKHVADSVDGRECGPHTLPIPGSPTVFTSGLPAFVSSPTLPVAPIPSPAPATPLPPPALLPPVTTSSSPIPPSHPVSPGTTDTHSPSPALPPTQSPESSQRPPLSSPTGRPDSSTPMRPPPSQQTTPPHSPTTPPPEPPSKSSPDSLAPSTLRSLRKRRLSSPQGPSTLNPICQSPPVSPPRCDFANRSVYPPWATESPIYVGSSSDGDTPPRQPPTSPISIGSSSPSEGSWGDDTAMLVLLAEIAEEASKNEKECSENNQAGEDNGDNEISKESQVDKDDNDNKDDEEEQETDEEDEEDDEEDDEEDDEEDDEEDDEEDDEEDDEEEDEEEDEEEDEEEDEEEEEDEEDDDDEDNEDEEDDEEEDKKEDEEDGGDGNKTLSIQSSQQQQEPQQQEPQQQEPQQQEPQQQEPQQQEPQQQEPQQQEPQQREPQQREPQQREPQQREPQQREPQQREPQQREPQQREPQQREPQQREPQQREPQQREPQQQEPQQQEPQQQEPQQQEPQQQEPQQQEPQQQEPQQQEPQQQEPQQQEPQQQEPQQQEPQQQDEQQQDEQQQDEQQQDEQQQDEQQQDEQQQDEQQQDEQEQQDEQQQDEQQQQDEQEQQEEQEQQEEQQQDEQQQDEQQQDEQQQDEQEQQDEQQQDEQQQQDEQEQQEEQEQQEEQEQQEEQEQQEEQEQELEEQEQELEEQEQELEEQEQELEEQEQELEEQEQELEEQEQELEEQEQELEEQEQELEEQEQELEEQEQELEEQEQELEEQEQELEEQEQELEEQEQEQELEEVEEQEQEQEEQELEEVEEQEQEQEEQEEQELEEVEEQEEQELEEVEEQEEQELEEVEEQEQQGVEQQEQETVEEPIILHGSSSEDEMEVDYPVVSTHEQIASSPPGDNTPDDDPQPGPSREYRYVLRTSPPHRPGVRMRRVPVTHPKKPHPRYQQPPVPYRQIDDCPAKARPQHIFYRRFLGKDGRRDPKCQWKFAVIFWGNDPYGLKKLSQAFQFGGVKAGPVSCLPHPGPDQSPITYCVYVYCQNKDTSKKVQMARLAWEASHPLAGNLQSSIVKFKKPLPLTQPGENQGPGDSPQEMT
Calb FLC – affects C. albicans growth with fluconazole | C. albicans CaCi-2 (fluconazole-resistant clinical isolate) + fluconazole, Alamar Blue growth, 48 h | growth inhibition, % (no concentration beside the values) | 300,000 compounds, 0.57% hits | AID 1979;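 active = most replicates above 75%; inconclusive = exactly half above 75%; inactive = most below 75%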;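 also: all wells also contain fluconazole at 8 µg/ml as a sub-toxic cotreatment; 0% = median of DMSO wells and 100% = median of geldanamycin control wells; wells of about 8 µL received 7.5 nL stock; the first replicate is given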
Beta2AR agonist – agonists of human beta-2 adrenergic receptor inducing internalization; Am2.2-beta2AR cells, FAP receptor internalization, flow cytometry; reference of the scale not given here; AID 504454; response, % (test concentration not listed); 340,000 compounds, 0.43% hits; P07550;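 active = response above a set limit, near 3 SD of response in nonfluorescent compounds, cut at about 42% in these data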;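 also: stock transfer was 100 nL into about 11 µL; a reference agonist was the positive control; negative values mostly stem from fluorescent compounds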
ALR inh – inhibitors of human sulfhydryl oxidase ALR. purified ALR, DTT oxidation, H2O2 HRP-luminol luminescence. inhibition, % (test concentration not listed). 290,000 compounds, 3.8% hits. AID 485317;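 active = mean and each replicate at 75% or more; inconclusive = only one of the two met; inactive = neither met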;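 also: stock transfer was 7.5 nL into about 7.5 µL; 0% = neutral wells and 100% = wells with inactivated enzyme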
T cruzi inh – T. cruzi replication inhibition | T. cruzi beta-gal in NIH3T3, luminescence, 90 h | inhibition, % (concentration not given with the values) | 300,000 compounds, 1.4% hits;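 active = mean inhibition across valid replicates above about 55%, limit read from the data; inconclusive = mean below that limit but half or more replicates reach it; inactive = mean below it, under half of replicates reach it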;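 also: signal also drops with host cell toxicity which is not excluded here; 0% = plate median of DMSO wells and 100% = zero luminescence signal; higher percent means less beta-gal luminescence so fewer parasites; stock transfer was 50 nL into about 50 µL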
Beta cell apopt – blocks beta cell apoptosis; INS-1E cytokine-induced death, ATP luminescence, 48 h; percent of positive-control rescue, neutral wells zero; protection from apoptosis, % (test concentration not listed); 300,000 compounds, 0.8% hits;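 active = all replicates at 75% or more, or half of them and the mean; inconclusive = half reach 75% but not the mean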;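 also: 0% = cytokine-treated negative control wells and 100% = positive control rescue; higher means more ATP so stronger rescue from cytokine killing; wells of about 40 µL received 100 nL stock; the first replicate is given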
Ecoli rRNA inh – selective bacterial rRNA inhibition in E. coli; 350,000 compounds, 1.6% hits; E. coli WT GFP vs humanized-ribosome RFP mutants, fluorescence, 24 h; hits give low values; DMSO median 0, no signal -100; AID 720706; GFP signal change (wild-type ribosome), % (concentration not given with the values);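 active = significant combined selectivity score with lowered wild-type GFP, culture density cut under 30%, mutant RFP and density less affected; inactive = any of these conditions unmet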; also: one replicate is shown; some compounds called inactive have numbers as strong as hits
Bfl-1 A1 inh – inhibitors of the anti-apoptotic protein A1, read as caspase activation; caspase activation, % (concentration not given with the values); 330,000 compounds, 0.066% hits; AID 2462; MEF A1-2A-BIM cells, Caspase-Glo 3/7 luminescence, 3 h; percent of clofoctol response, vehicle zero;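 active = over half of replicate activation scores above 10%, or exactly half above 10 with the replicate mean above 10; inconclusive = replicate mean below 10 yet half the replicates above 10; inactive = over half of replicates below 10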;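 also: wells of about 30 µL received 50 nL stock; many hits fall short of the cut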
Ecoli rRNA inh OD600 – recorded beside Ecoli rRNA inh, whose call it bears; OD600 change, %; measured here: OD600 growth;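 optical density of the mix in the first replicate; 0 = DMSO median and -100 = no signal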
Ecoli rRNA inh RFP – second read-out of Ecoli rRNA inh, no call of its own (marks repeat the call); RFP signal change, %; measured here: RFP humanized mutant strains;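 first replicate; 0 = DMSO median and -100 = no signal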
The depositor's hits bear a star. This is a subset. The share of hits here may be higher or lower than overall.

What do the screens show for `CCOC(=O)N1CCC(=NNc2nc(C)cc(=O)[nH]2)CC1`?
LANA-H2B inh: -0.3; Calb FLC: -3; Beta2AR agonist: -6; ALR inh: 0; T cruzi inh: -6; Beta cell apopt: 1; Ecoli rRNA inh: 3; Bfl-1 A1 inh: 0.4; Ecoli rRNA inh OD600: 9; Ecoli rRNA inh RFP: -1.3

How did O=c1c2c(nc3cc(-c4ccccc4)[nH]n13)CCC2 do in these assays?
LANA-H2B inh: -0.4; Calb FLC: 5; Beta2AR agonist: 3; ALR inh: 3; T cruzi inh: -6; Beta cell apopt: 3; Bfl-1 A1 inh: -8.9

Results for CCOC(=O)c1c(C)n(C)c2ccc(OC)c(NC(=O)CN3CCN(C(=O)c4ccco4)CC3)c12 ?
LANA-H2B inh: 4.3; Calb FLC: -16; Beta2AR agonist: -13; ALR inh: -11; T cruzi inh: -3; Beta cell apopt: 8; Bfl-1 A1 inh: -2.0

What do the screens show for `O=C1C(=O)N(CCCN2CCOCC2)C(c2ccc([N+](=O)[O-])cc2)/C1=C(/O)c1ccc2c(c1)OCO2` (configuration not stated)?
LANA-H2B inh: 2.7; Calb FLC: -3; Beta2AR agonist: -1; ALR inh: 49; T cruzi inh: 12; Beta cell apopt: -1; Ecoli rRNA inh: 2; Bfl-1 A1 inh: 0.3; Ecoli rRNA inh OD600: 8; Ecoli rRNA inh RFP: -2.5

Results for CC(C(O)c1cc(=O)c(OCc2ccccc2)co1)[N+](=O)[O-] (configuration not stated) ?
LANA-H2B inh: 1.3; Calb FLC: 22; Beta2AR agonist: -5; ALR inh: 2; T cruzi inh: -12; Beta cell apopt: -4; Ecoli rRNA inh: 13; Bfl-1 A1 inh: 0.1; Ecoli rRNA inh OD600: 7; Ecoli rRNA inh RFP: -0.2

How did CCN(CC)CCCNC(=S)Nc1ccc(Br)cc1 do in these assays?
LANA-H2B inh: -1.8; Calb FLC: -19; Beta2AR agonist: -5; ALR inh: 9; T cruzi inh: -1; Beta cell apopt: -1; Ecoli rRNA inh: 12; Bfl-1 A1 inh: -0.3; Ecoli rRNA inh OD600: 11; Ecoli rRNA inh RFP: 2.3

How did CCc1ccc(CN2CCCC(CCC(=O)N3CCN(c4ccccn4)CC3)C2)o1 (configuration not stated) do in these assays?
LANA-H2B inh: -5.6; Calb FLC: -10; Beta2AR agonist: -7; T cruzi inh: 59*; Beta cell apopt: 13; Ecoli rRNA inh: 13; Bfl-1 A1 inh: 0.1; Ecoli rRNA inh OD600: 3; Ecoli rRNA inh RFP: 0.9

What do the screens show for `Cc1ccccc1S(=O)(=O)Cc1ccc(C(=O)NC2CCCC2)o1`?
LANA-H2B inh: 8.9; Calb FLC: -12; Beta2AR agonist: 2; ALR inh: -8; T cruzi inh: -6; Beta cell apopt: 0; Ecoli rRNA inh: 4; Bfl-1 A1 inh: 0.8; Ecoli rRNA inh OD600: 4; Ecoli rRNA inh RFP: 0.3

What do the screens show for `CCOC(=O)CN1Cc2cccc(C(=O)O)c2C1=O`?
LANA-H2B inh: 0.3; Calb FLC: 15; Beta2AR agonist: 3; ALR inh: -5; T cruzi inh: -3; Beta cell apopt: -4; Ecoli rRNA inh: 3; Bfl-1 A1 inh: 1.0; Ecoli rRNA inh OD600: 10; Ecoli rRNA inh RFP: -0.4

What do the screens show for `O=c1[nH]c2cc3ccccc3cc2nc1C(F)(F)F`?
LANA-H2B inh: -0.9; Calb FLC: 32; Beta2AR agonist: 8; ALR inh: 71; T cruzi inh: -9; Beta cell apopt: -1; Ecoli rRNA inh: 46; Bfl-1 A1 inh: -0.5; Ecoli rRNA inh OD600: 17; Ecoli rRNA inh RFP: 0.4

How did CCN(CC)C(=O)c1ccc(Oc2ccc([N+](=O)[O-])cc2Cl)cc1 do in these assays?
LANA-H2B inh: -2.0; Calb FLC: -7; Beta2AR agonist: 1; ALR inh: 0; T cruzi inh: 14; Beta cell apopt: 4; Ecoli rRNA inh: -4; Bfl-1 A1 inh: 0.0; Ecoli rRNA inh OD600: -3; Ecoli rRNA inh RFP: -3.5

How did Clc1ccc(-n2ncc3c(NCc4ccc5c(c4)OCO5)ncnc32)cc1 do in these assays?
LANA-H2B inh: 3.8; Calb FLC: -5; Beta2AR agonist: -1; ALR inh: -5; T cruzi inh: 1; Beta cell apopt: 5; Bfl-1 A1 inh: -0.5

How did O=C(Nc1nnc(SCC(=O)N2CCOCC2)s1)c1ccccc1 do in these assays?
LANA-H2B inh: -3.3; Calb FLC: 2; Beta2AR agonist: -8; T cruzi inh: -9; Beta cell apopt: 9; Ecoli rRNA inh: -3; Bfl-1 A1 inh: -0.3; Ecoli rRNA inh OD600: 4; Ecoli rRNA inh RFP: -4.5

How did COc1ccc(NC(=O)CN(C)CC(=O)NC2CCCCC2C)cc1 (configuration not stated) do in these assays?
LANA-H2B inh: 3.6; Beta2AR agonist: -5; ALR inh: -7; Beta cell apopt: -4; Ecoli rRNA inh: 4; Bfl-1 A1 inh: 0.1; Ecoli rRNA inh OD600: 12; Ecoli rRNA inh RFP: -0.7

How did COc1ccc(N2CCN(C(=O)CN(c3ccccc3)S(=O)(=O)c3ccc(OC)cc3)CC2)cc1 do in these assays?
LANA-H2B inh: 0.6; Calb FLC: -4; Beta2AR agonist: 0; ALR inh: 53; T cruzi inh: 17; Beta cell apopt: 2; Bfl-1 A1 inh: 0.4

Results for Cc1ccc(C)c(S(=O)(=O)N2CCCCC2CCNC(=O)C(=O)NCc2cccnc2)c1 (configuration not stated) ?
LANA-H2B inh: -10; Calb FLC: -1; Beta2AR agonist: -6; ALR inh: -3; T cruzi inh: 18; Beta cell apopt: -2; Ecoli rRNA inh: -7; Bfl-1 A1 inh: -0.3; Ecoli rRNA inh OD600: -7; Ecoli rRNA inh RFP: 2.3

What do the screens show for `COc1cc(NC(=O)C2CC(c3ccccc3O)=NO2)c(OC)cc1Cl` (configuration not stated)?
LANA-H2B inh: 4.6; Calb FLC: 7; Beta2AR agonist: -9; ALR inh: -9; T cruzi inh: -20; Beta cell apopt: 5; Ecoli rRNA inh: 11; Bfl-1 A1 inh: -0.1; Ecoli rRNA inh OD600: 16; Ecoli rRNA inh RFP: -0.2

How did COc1cc2c(cc1NC(=S)NC(=O)/C=C/c1ccco1)oc1ccccc12 do in these assays?
LANA-H2B inh: 7.9; Calb FLC: 26; Beta2AR agonist: -9; ALR inh: 7; T cruzi inh: 0; Beta cell apopt: -1; Ecoli rRNA inh: 8; Bfl-1 A1 inh: 0.2; Ecoli rRNA inh OD600: 11; Ecoli rRNA inh RFP: 2.0

Results for Cc1ccccc1NS(=O)(=O)c1ccc(C(=O)NCCCN2CCCC2=O)cc1 ?
LANA-H2B inh: 1.6; Calb FLC: 0; Beta2AR agonist: -1; ALR inh: 6; T cruzi inh: 3; Beta cell apopt: -4; Ecoli rRNA inh: 7; Bfl-1 A1 inh: -1.1; Ecoli rRNA inh OD600: 6; Ecoli rRNA inh RFP: -1.9

How did O=c1[nH]c(CSc2nnc3ccccn23)nc2ccccc12 do in these assays?
LANA-H2B inh: 2.1; Calb FLC: -7; Beta2AR agonist: 1; T cruzi inh: -5; Beta cell apopt: 0; Bfl-1 A1 inh: 1.3

Results for COc1ccc(-n2c(COc3ccccc3)n[nH]c2=S)cc1 ?
LANA-H2B inh: 0.0; Calb FLC: 7; Beta2AR agonist: 8; ALR inh: 40; T cruzi inh: 0; Beta cell apopt: 0; Ecoli rRNA inh: -18; Bfl-1 A1 inh: 0.8; Ecoli rRNA inh OD600: -18; Ecoli rRNA inh RFP: -0.2

What do the screens show for `CN(C)/C=C/C(=O)c1ccc(OCCN(C)c2ccccn2)cc1`?
LANA-H2B inh: -2.6; Calb FLC: -4; Beta2AR agonist: -10; ALR inh: 8; T cruzi inh: -1; Beta cell apopt: -2; Ecoli rRNA inh: 8; Bfl-1 A1 inh: -1.0; Ecoli rRNA inh OD600: -6; Ecoli rRNA inh RFP: 6.1

Results for O=C(Nc1nnc(C2CC2)s1)c1cccnc1Oc1ccc(Cl)cc1 ?
LANA-H2B inh: -0.6; Calb FLC: 0; Beta2AR agonist: -12; ALR inh: -9; T cruzi inh: 2; Beta cell apopt: 0; Ecoli rRNA inh: -4; Bfl-1 A1 inh: -0.1; Ecoli rRNA inh OD600: 2; Ecoli rRNA inh RFP: 0.3

How did COC(=O)c1cc(S(=O)(=O)NCC2CCN(Cc3cccc(Cl)c3)CC2)c[nH]1 do in these assays?
LANA-H2B inh: 0.3; Calb FLC: 14; Beta2AR agonist: -76; ALR inh: -11; T cruzi inh: 32; Beta cell apopt: 2; Ecoli rRNA inh: 7; Bfl-1 A1 inh: 0.6; Ecoli rRNA inh OD600: 12; Ecoli rRNA inh RFP: 0.6

How did Cc1cc(-c2ccccc2)nc(N(C)N)c1S(C)(=O)=O do in these assays?
LANA-H2B inh: -4.2; Calb FLC: 26; Beta2AR agonist: -8; ALR inh: 2; T cruzi inh: -6; Beta cell apopt: -3; Ecoli rRNA inh: -28; Bfl-1 A1 inh: 1.9; Ecoli rRNA inh OD600: -42; Ecoli rRNA inh RFP: -14

Results for Cc1nc(-c2ccc(NC(=O)c3ccccc3)cc2)cs1 ?
LANA-H2B inh: -0.9; Calb FLC: 0; Beta2AR agonist: 20; T cruzi inh: 3; Beta cell apopt: -4; Ecoli rRNA inh: -1; Bfl-1 A1 inh: -8.5; Ecoli rRNA inh OD600: -3; Ecoli rRNA inh RFP: -1.3

Results for C/C(CC(=O)Nc1cc(C)ccn1)=N\NC(=O)c1cccc(C)c1O ?
LANA-H2B inh: 0.1; Calb FLC: 94*; Beta2AR agonist: 4; ALR inh: 26; T cruzi inh: inconclusive; Beta cell apopt: 71; Ecoli rRNA inh: -57; Bfl-1 A1 inh: -2.5; Ecoli rRNA inh OD600: -79; Ecoli rRNA inh RFP: -16

How did CC1CCN(C(=O)CNC(=O)c2ccc(Br)o2)CC1 do in these assays?
LANA-H2B inh: -3.9; Beta2AR agonist: -8; ALR inh: 6; Beta cell apopt: -5; Ecoli rRNA inh: 12; Bfl-1 A1 inh: -2.6; Ecoli rRNA inh OD600: 14; Ecoli rRNA inh RFP: -2.1

How did CC(=O)Nc1ccc(S(=O)(=O)N(C)Cc2ccccc2)cc1 do in these assays?
LANA-H2B inh: 1.3; Calb FLC: 35; Beta2AR agonist: -4; ALR inh: 10; T cruzi inh: -6; Beta cell apopt: 1; Ecoli rRNA inh: 16; Bfl-1 A1 inh: -1.2; Ecoli rRNA inh OD600: 11; Ecoli rRNA inh RFP: 4.0

What do the screens show for `COc1ccc(OC)c(C2(O)CSC(=Nc3cccnc3)N2Cc2ccco2)c1` (configuration not stated)?
LANA-H2B inh: -0.9; Calb FLC: 11; Beta2AR agonist: 13; ALR inh: -17; T cruzi inh: 6; Beta cell apopt: -7; Ecoli rRNA inh: -53; Bfl-1 A1 inh: -0.1; Ecoli rRNA inh OD600: -76; Ecoli rRNA inh RFP: -21

Results for Cc1ccc(C)c(S(=O)(=O)NCc2ccc(C(=O)N3CCC(Cc4ccccc4)CC3)cc2)c1 ?
LANA-H2B inh: -2.1; Calb FLC: 4; Beta2AR agonist: 4; ALR inh: -21; T cruzi inh: 64*; Beta cell apopt: 5; Bfl-1 A1 inh: 0.5

How did O=C(COc1ccc(-c2ccccc2)cc1)N/N=C/c1ccccc1Br do in these assays?
LANA-H2B inh: 2.0; Calb FLC: -7; Beta2AR agonist: 7; ALR inh: -2; T cruzi inh: 4; Beta cell apopt: -7; Bfl-1 A1 inh: -0.3
